# Source: PubChem
# AID923: qHTS Assay for Allosteric/Competitive Inhibitors of Caspase-1: Spectroscopic Profiling in AFC Spectral Region; compound fluorescence, AFC spectral region (405/520 nm); almost no hit is shown here; Potency, µM (series often up to 57.5 µM), without a hit: at the highest dose fluorescence increase, most hits filed as activators; hit rate 1.1% among 75,000; active = well fitted activation curve with a large enough effect; inconclusive = small, poorly fitted or top-dose-only effect;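 also: potency is read from the fitted curve at half-maximal effect; 0% is about no effect; scaled to a free AFC standard on each plate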
#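 Compound autofluorescence profiled at 405 nm ex/520 nm em during kinetic caspase 1 run (50 nM enzyme, 5 uM Ac-WEHD-AFC, HEPES pH 7.5, 10 mM DTT). Titration up to 57 uM; baseline from regression intercept, normalized to AFC standard curve.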
# A488 fluor: compound fluoresces in the A488 spectral region | max dye equivalency, M | compound autofluorescence, A488 spectral region, dye equivalency; stronger effect = higher value | hit rate 0.1% among 59,000 | AID 591; active = above 10 nM dye equivalent; inconclusive = 1 to 10 nM; inactive = 1 nM or less; about half of its hits are not listed in these tables;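 also: highest value over a series up to 38 µM; compound alone in buffer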
#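 Compounds pin-transferred into 100 mM Tris buffer, pH 8.0, incubated 15 min at room temperature, then imaged with 480 nm excitation/540 nm emission filters. Fluorescence converted to Alexa 488 dye-equivalent concentration via an on-plate six-point A488 standard curve.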
# A647 fluor: compound autofluorescence in A647 spectral region | Compound fluorescence, A647 channel (570/671 nm), Tris buffer | max dye-equivalent concentration, M | 59,000 tested, under 10 active; active means above 1 µM dye equivalent; inconclusive means 0.1 to 1 µM; inactive means 0.1 µM or less;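 also: values scaled relative to a standard on each plate; highest value over a series up to 38 µM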
#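 Compound fluorescence was measured in 100 mM Tris buffer, pH 8.0, after 15 min at room temperature, using 570 nm excitation and 671 nm emission filters. Signal was normalized to a per-plate Alexa 647 standard curve and expressed as dye-equivalent concentration at each compound concentration.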
# Resorufin fluor: compounds fluorescent in resorufin spectral region; Compound fluorescence, resorufin region 547/598 nm, buffer; stronger effect = higher value; max dye-equivalent concentration, M; hit rate 0.04% among 59,000; active = above 10 nM dye equivalent; inconclusive = 1 to 10 nM; inactive = 1 nM or less; a few of its hits are not listed in these tables; also: highest value over a series up to 38 µM
#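 Read-out: intrinsic compound fluorescence at ex 547/em 598 nm after 15 min at RT in pH 8.0 Tris (100 mM). Values expressed as resorufin-equivalent concentration from per-plate standard series.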
# TSHR ag: activates the human thyroid stimulating hormone receptor | P16473 | HEK293-CNG-TSHR cells (CNG channel as cAMP sensor), membrane potential dye, cAMP | Potency, µM (series often up to 57.1 µM), for the others: at the top dose activation, hits mostly activators | hit rate 0.48% among 73,000 | AID 926; active = well fitted activation curve of enough size with the parental cells flat; inconclusive = any curve in the parental cells; inactive = parental cells flat and receptor cells flat or falling; also: potency is read from the fitted curve at half-maximal effect; % of control where 0% means no effect; weak receptor curves with flat parental cells got no call and are not listed
# Target sequence (P16473 whole entry, looked up): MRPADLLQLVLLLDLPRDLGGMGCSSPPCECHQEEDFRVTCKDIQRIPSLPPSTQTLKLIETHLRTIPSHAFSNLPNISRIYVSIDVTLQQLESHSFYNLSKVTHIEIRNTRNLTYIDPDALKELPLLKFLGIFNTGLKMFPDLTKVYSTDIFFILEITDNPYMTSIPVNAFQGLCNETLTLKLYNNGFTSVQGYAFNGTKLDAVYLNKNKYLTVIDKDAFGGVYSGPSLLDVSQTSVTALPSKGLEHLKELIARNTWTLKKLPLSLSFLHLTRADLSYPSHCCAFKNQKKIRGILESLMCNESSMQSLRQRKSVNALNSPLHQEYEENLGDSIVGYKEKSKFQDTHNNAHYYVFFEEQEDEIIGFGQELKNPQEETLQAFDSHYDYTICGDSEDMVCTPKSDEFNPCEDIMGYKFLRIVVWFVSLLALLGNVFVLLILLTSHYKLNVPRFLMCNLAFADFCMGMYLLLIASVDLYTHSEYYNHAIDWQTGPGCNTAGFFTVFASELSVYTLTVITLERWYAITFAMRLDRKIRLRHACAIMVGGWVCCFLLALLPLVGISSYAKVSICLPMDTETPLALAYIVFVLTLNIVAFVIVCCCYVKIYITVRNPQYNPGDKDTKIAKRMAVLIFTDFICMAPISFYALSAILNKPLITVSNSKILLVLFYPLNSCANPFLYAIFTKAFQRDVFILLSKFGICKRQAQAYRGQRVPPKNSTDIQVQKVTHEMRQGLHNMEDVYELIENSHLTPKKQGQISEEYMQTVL
#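 cAMP rise detected as CNG-channel membrane depolarization by fluorescent dye (emission 590 nm), 30 min after compound, following 60 min dye loading containing 100 uM RO 20-1724 at room temperature. Cells: TSHR/CNG HEK 293, with parental CNG HEK 293 as control.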
# * marks the source's active call; other numbers are inactive results; i = inactive; ? = inconclusive; nt = no result given; & = joins results of further samples; [ ] = remark or other dose. The list is partial. The share of hits here may be higher or lower than overall.
SMILES,AID923,A488 fluor,A647 fluor,Resorufin fluor,TSHR ag
CCOC(=O)c1ccccc1C(=O)OCC,-1.8%&0.3%,nt,nt,nt,?
CCC(=NCCO)c1c(O)n(-c2ccccc2)c(=O)[nH]c1=O,-0.3%,i,1e-09,i,nt
CC[C@]1(C2=NCCN2)Cc2ccccc2O1,-0.1%&-1.2%,i,1e-09,i,?
CCCN1CCC[C@@H]2Cc3nc(N)ncc3C[C@H]21,1.4%,i,5.7e-08,i,4%
COc1cc2c(cc1OC)[C@@]13CCN4CC5=CCO[C@H](CC(=O)O)[C@@H]([C@H]1N2)[C@H]5C[C@H]43,-0.2%[11.5 µM],i,6.6e-08,i,-2%[11.4 µM]
BrCC(Br)C1CCC(Br)C(Br)C1 (stereo not drawn),-1.0%,nt,nt,nt,?
CCC(=O)N1CCN(CCN=Cc2c(O)n(C)c(=O)n(C)c2=O)CC1,2.1%,i,1e-09,i,5%
O=P(O)(O)Cc1ccccc1OP(=O)(c1ccccc1)c1ccccc1,-0.2%,i,1e-08,i,3%
CN1C2C=C(N(C(=O)c3ccc(Cl)cc3)c3ccccc3)CC1CC2 (stereo not drawn),-0.4%,i,1.9e-09,i,8%
CCSc1cc(C2C(C#N)=C(N)Oc3n[nH]c(C)c32)c(C)o1 (stereo not drawn),-0.9%,i,1.1e-08,i,?
COc1ccc(CN2CCCCC2c2cccnc2)cc1C (stereo not drawn),0.2%,nt,nt,nt,15%
CCNc1nc(Cl)nc(NC(C)C)n1,-1.0%,nt,nt,nt,-2%
Cc1nnc2n1-c1ccc(Br)cc1C(c1ccccc1Cl)=NC2,0.8%,nt,nt,nt,?
O=NN(c1ccccc1)c1ccccc1,-1.3%,nt,nt,nt,6%
CCCCNC(=O)Nc1ccc(C(O)(C(=O)OC)C(F)(F)F)cc1 (stereo not drawn),nt,i,3.3e-09,i,nt
COc1ccc(OC)c(N2C(=O)NC(=O)C(CCc3ccncc3)(CCc3ccncc3)C2=O)c1,4.4%,nt,nt,nt,-13%
ClCc1ccccc1,-1.8%,nt,nt,nt,-6%
CCC[C@@H]1CC2=CC(=O)CC[C@]2(C)[C@@H]2CC[C@@]3(C)[C@H](CC[C@]3(O)CCC(=O)O)[C@H]12,-1.7%,nt,nt,nt,9%
COP(=O)(OC)O/C(=C\Cl)c1cc(Cl)c(Cl)cc1Cl,1.0%,nt,nt,nt,?
Cn1cccc1CN1CCN(C(=O)COc2ccccc2)CC1,-1.4%,nt,nt,nt,8%
COC(=O)C1=C(N)Oc2c(c(=O)oc3ccccc23)[C@]12C(=O)N(C)c1ccccc12,-0.6%,i,1e-09,i,nt
Cc1onc(-c2ccccc2)c1C(=O)N1CCC2(CC1)OCCO2,-2.3%,i,1e-09,i,2%
CCOC(=O)C1C(=O)N(C)C2(C)CC1c1ccccc1O2 (stereo not drawn),3.1%,i,6.7e-09,i,9%
CCCN(CCC)C(=O)Cc1c(-c2ccc(Cl)cc2)nc2c(Cl)cc(Cl)cn12,0.0%,i,1.5e-08,i,22%
CN1[C@@H]2CC[C@H]1CC(OC(=O)C1C=Nc3ccccc31)C2 (stereo partly drawn),nt,i,1e-09,i,nt
Clc1ccc(CS[C@@H](Cn2ccnc2)c2ccc(Cl)cc2Cl)cc1,4.3%[25.7 µM],i,3.2e-08,i,9%[25.6 µM]
COc1ccc(CN2CCN(Cc3ccccc3)CC2)c(OC)c1,-2.1%,i,2.1e-08,i,7%
CC(C)CC(C)Nc1ccc(Nc2ccccc2)cc1 (stereo not drawn),5.9%,nt,nt,nt,?
C=CCN1CC[C@]23c4c5ccc(O)c4O[C@H]2/C(=N/NC(=O)c2ccccc2)CC[C@@]3(O)[C@H]1C5,-3.3%,nt,nt,nt,-1%
Cn1c(O)c(C=NC2CC(C)(C)NC(C)(C)C2)c(=O)n(C)c1=O,1.0%,nt,nt,nt,-7%
C=CCn1c(O)c(C(C)=Nc2cc(OC)ccc2OC)c(=O)[nH]c1=O,-1.0%,i,3.3e-09,i,11%
Cc1cc[c]([Sb]2[O][C@H]([C@H](O)[C@H](O)C(=O)O)[C@@H](CO)[O]2)cc1,0.1%[11.5 µM],i,1e-08,i,3%[11.4 µM]
CC(=NCc1cccnc1)c1c(O)n(C2CCCCC2)c(=O)[nH]c1=O,-0.8%,i,2.1e-08,i,-1%
CCCCCCCCCc1ccc(O)cc1,-2.8%,nt,nt,nt,18%
CCCCOC(=O)C1=C(N)OC2=C(C(=O)CCC2)[C@]12C(=O)Nc1ccccc12,-1.5%,i,1e-08,i,nt
O=C(O)C(Br)CBr (stereo not drawn),-0.7%,nt,nt,nt,?
CCOc1cccc(N2C(=O)CC(=O)NC2=O)c1,0.9%,i,2.3e-08,i,3%
COc1ccc(C2SCC(=O)Nc3c2c(=O)[nH]n3C2CCCCCC2)cc1OC (stereo not drawn),1.5%,nt,nt,nt,-3%
C=CC(=O)NCNC(=O)C=C,-0.6%,nt,nt,nt,?
O=C1NC(=O)C(Cc2cccs2)C(=O)N1,0.6%,i,1e-09,i,0%
CCS(=O)(=O)N1CCCC(C(=O)N2CCC3(CC2)OCCO3)C1 (stereo not drawn),1.6%,i,1.5e-08,i,?
Cc1ccc2c(c1N)C(=O)c1ccccc1C2=O,-2.8%,nt,nt,nt,?
CN(N=O)c1cc(O)ccc1O,2.5%,i,8.5e-09,i,-11%
CCCc1nc2ccccc2c(=O)n1-c1ccccc1OC,nt,i,4.9e-08,i,nt
O=c1c(C=NCCN2CCNCC2)c(O)n(C2CCCCC2)c(=O)n1C1CCCCC1,nt,i,4.5e-08,i,nt

# Another view of some results above:
canonical_smiles: CCCCOC(=O)C1=C(N)OC2=C(C(=O)CCC2)[C@]12C(=O)Nc1ccccc12
  AID923 = -1.5%; A488 fluor = i; A647 fluor = 1e-08; Resorufin fluor = i; TSHR ag = nt
canonical_smiles: CCCc1nc2ccccc2c(=O)n1-c1ccccc1OC
  AID923 = nt; A488 fluor = i; A647 fluor = 4.9e-08; Resorufin fluor = i; TSHR ag = nt

# New compounds follow:
SMILES,AID923,A488 fluor,A647 fluor,Resorufin fluor,TSHR ag
O=C(Oc1ccccc1)N1CCC2(CCCN(C(c3ccccc3)c3ccccc3)C2)CC1,0.6%,i,2.9e-08,i,-1%
Cc1cc(OCC(=O)O)c2c3c(c(=O)oc2c1)CCCC3,-0.9%,i,2.4e-09,i,1%
CC(=O)[C@@H]1CC[C@@H]2[C@@H]3CCC4=CC(=O)CC[C@@]4(C)[C@H]3CC[C@]21C,-2.6%[25.7 µM],i,3.2e-08&2.6e-09,i,?
O=NN1CCCCC1,0.7%,nt,nt,nt,-4%
CN[C@@H](C)[C@H]1CC[C@@H](N)[C@@H](O[C@@H]2[C@@H](O)[C@@H](O[C@H]3OC[C@@](C)(O)[C@@H](NC)[C@@H]3O)[C@H](N)C[C@@H]2N)O1 (tested in a mixture with another compound),1.6%[25.7 µM],i,4.9e-08,i,-10%[25.6 µM]
C[C@H]1CC[C@@H]2[C@@H](C)[C@H]3[C@H](C[C@H]4[C@@H]5CC=C6CC(O[C@@H]7O[C@H](CO)[C@H](O)[C@H](O[C@@H]8O[C@H](CO)[C@@H](O)[C@H](O)[C@H]8O)[C@H]7O[C@H]7O[C@@H](C)[C@H](O)[C@@H](O)[C@H]7O)CC[C@]6(C)[C@H]5CC[C@]34C)N2C1 (stereo partly drawn),-1.4%,nt,nt,nt,6%
CCCc1cc2c(n1CCO)C(C)C1CN(C(=O)c3ccccc3)C(C)(C(=O)OC)C21 (stereo not drawn),2.7%,nt,nt,nt,11%
Nc1ccccc1O.O.O=C(O)[C@H]1[O][Sb][O][C@H]1C(=O)O,-4.3%[11.5 µM],i,1e-09,i,0%[11.4 µM]
N[C@H](Cc1ccccc1)c1nn[nH]n1,0.1%[11.5 µM],i,1e-09,i,-3%[11.4 µM]
Cc1c([C@@H](C)[C@H]2NC[C@H](C)C[C@@H]2O)ccc2c1C[C@@H]1[C@H]2CC=C2C[C@@H](O)CC[C@@]21C,-2.1%[11.5 µM],i,1e-09,i,5%[11.4 µM]
CN(C)C(=O)Cl,2.0%,nt,nt,nt,?
COc1ccc2c(c1OC)C(=O)O[C@@H]2[C@H]1c2cc3c(cc2CCN1C)OCO3,nt,i,1e-09,i,7%
CCN1CCN(Cc2ccc(C)cc2)CC1,-0.6%,nt,nt,nt,9%
CN(C)C(=O)Oc1ccc(-c2nnco2)cc1,-0.8%,nt,nt,nt,?
CN1CC[C@@]2(CCCN(C(=O)c3csnn3)C2)C1,2.1%,i,2.8e-08,i,9%
CC1(C)CC(=O)C(C=NCCN2CCN(C(=O)Cc3ccc(F)cc3)CC2)=C(O)C1,nt,i,6.6e-08,i,nt
O=C(CN1CC(c2ccccc2)CC1=O)Nc1ccccc1 (stereo not drawn),-0.4%,nt,nt,nt,-5%
O=C(Cn1nc(Cc2cccnc2)c2ccccc2c1=O)N1CCC2(CC1)OCCO2,1.6%,i,2.4e-09,i,28%
N[C@@H](Cc1cc(O)c(O)cc1O)C(=O)O,-3.3%,i,5.5e-09,i,6%
O=c1[nH]c2c(c(=O)n1C1CCCCC1)CCC2,-0.4%,i,6.2e-09,i,?
CCOc1cc2[nH]c(=S)n(CCCC(=O)N3CCC4(CC3)OCCO4)c(=O)c2cc1OCC,-0.3%,i,4.3e-09,i,1%
Cc1ccccc1C1=NCC(=O)N(CC(=O)NCc2ccco2)c2sc3c(c21)CCCC3,-1.3%,i,4.5e-08,i,nt
CC(=O)NBr,0.0%,i,2.4e-08,i,1%
O=C1NC(=S)NC(=O)C1=Cc1cccc2cc3ccccc3cc12,13%[11.5 µM],i,4.2e-09,i,0%[11.4 µM]
O=CC=O,-1.8%,nt,nt,nt,0%
Brc1ccc(Oc2ccc(Br)cc2Br)c(Br)c1,1.7%,nt,nt,nt,26%
COC(=O)[C@@H]1C[C@H]1[C@@H](NP(=O)(c1ccccc1)c1ccccc1)c1ccccc1,-1.6%,nt,nt,nt,?
Cc1ccnc(-n2c(-c3ccco3)nc3ccccc3c2=O)c1,-1.6%,i,5.6e-09,i,17%
CC[C@H]1[C@@H]2C[C@@H]3[C@@H]4N(C)c5ccccc5[C@@]45C[C@@H]([C@H]2[C@@H]5O)N3[C@@H]1O,nt,i,1e-09,i,?
Cc1cccc(-n2c(O)c(C=NCc3cccnc3)c(=O)[nH]c2=O)c1C,-1.9%,i,5.1e-09,i,-4%

# Sorted by length of the SMILES (largest number first): some entries from above
SMILES,AID923,A488 fluor,A647 fluor,Resorufin fluor,TSHR ag
CC[C@H]1[C@@H]2C[C@@H]3[C@@H]4N(C)c5ccccc5[C@@]45C[C@@H]([C@H]2[C@@H]5O)N3[C@@H]1O,nt,i,1e-09,i,?
Cc1ccccc1C1=NCC(=O)N(CC(=O)NCc2ccco2)c2sc3c(c21)CCCC3,-1.3%,i,4.5e-08,i,nt
O=C(Cn1nc(Cc2cccnc2)c2ccccc2c1=O)N1CCC2(CC1)OCCO2,1.6%,i,2.4e-09,i,28%
Cc1cccc(-n2c(O)c(C=NCc3cccnc3)c(=O)[nH]c2=O)c1C,-1.9%,i,5.1e-09,i,-4%
Brc1ccc(Oc2ccc(Br)cc2Br)c(Br)c1,1.7%,nt,nt,nt,26%

# (next part)
SMILES,AID923,A488 fluor,A647 fluor,Resorufin fluor,TSHR ag
CC(C)(O)[C@H]1[C@H]2OC(=O)[C@@H]1[C@]1(O)C[C@H]3O[C@]34C(=O)O[C@H]2[C@]14C,nt,i,1.9e-08,i,13%
C=CCN1C(=O)CSc2ccc(C(=O)N3CCC4(CC3)OCCO4)cc21,-1.2%,i,1e-08,i,2%
c1ccc(CCn2nnnc2CN2CCC(n3nnc4ccccc43)CC2)cc1,1.0%,i,1e-09,i,7%
O=C1c2ccccc2C(=O)N1Cc1nc2ccccc2c(=O)n1-c1ccc(Br)cn1,1.0%,nt,nt,nt,5%
